D2 potentiator: positive allosteric modulators of human D2 dopamine receptor; P14416; DiscoveRx D2 beta-arrestin cells, luminescence, 90 min; 100% = 57 uM dopamine signal; potentiation, % (no concentration beside the values); 360,000 compounds, 0.23% hits; AID 624464; active = potentiation of 50% or more; inconclusive = 30% to 50%; inactive = 30% or less;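 note: compound concentration not given in the record; tested on top of an EC20 dose of dopamine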
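PathHunter D2 cells, attached overnight at 37 deg C, received compound in DMSO plus dopamine at EC20 (50 nM final) for 90 min at 37 deg C. Beta-arrestin recruitment was read as luminescence after 1 h with detection reagent at ambient temperature.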
Six1-Eya2 inh: Six1/Eya2 interaction inhibition. AID 651725. activity change, % (test concentration not listed). 360,000 compounds, 0.56% hits. Q15475+O00167. AlphaScreen GST-Six1/His-Eya2 binding, biochemical; hits give low values; control for the full effect not named in the record; in the data active = activity change below about -65%; inconclusive = about -30% to -65%; inactive = above about -30%; note: % is set by controls: 0 for no effect and ±100 for the full control effect
Target sequence (O00167 whole entry, looked up): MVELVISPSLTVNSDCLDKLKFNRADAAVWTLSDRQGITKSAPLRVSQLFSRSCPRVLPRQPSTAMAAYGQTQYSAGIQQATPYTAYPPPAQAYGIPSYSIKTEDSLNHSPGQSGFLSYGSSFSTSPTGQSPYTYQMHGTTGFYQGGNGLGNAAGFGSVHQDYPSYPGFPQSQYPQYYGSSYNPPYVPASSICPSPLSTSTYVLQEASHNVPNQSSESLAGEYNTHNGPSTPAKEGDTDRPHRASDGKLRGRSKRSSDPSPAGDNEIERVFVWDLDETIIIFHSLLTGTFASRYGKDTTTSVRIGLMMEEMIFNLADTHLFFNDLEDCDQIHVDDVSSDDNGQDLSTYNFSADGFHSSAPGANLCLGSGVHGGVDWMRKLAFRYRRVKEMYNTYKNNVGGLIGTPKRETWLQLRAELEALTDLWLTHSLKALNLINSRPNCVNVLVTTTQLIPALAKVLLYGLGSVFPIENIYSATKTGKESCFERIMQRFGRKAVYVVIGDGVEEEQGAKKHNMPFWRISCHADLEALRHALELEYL
Target sequence (Q15475 whole entry, looked up): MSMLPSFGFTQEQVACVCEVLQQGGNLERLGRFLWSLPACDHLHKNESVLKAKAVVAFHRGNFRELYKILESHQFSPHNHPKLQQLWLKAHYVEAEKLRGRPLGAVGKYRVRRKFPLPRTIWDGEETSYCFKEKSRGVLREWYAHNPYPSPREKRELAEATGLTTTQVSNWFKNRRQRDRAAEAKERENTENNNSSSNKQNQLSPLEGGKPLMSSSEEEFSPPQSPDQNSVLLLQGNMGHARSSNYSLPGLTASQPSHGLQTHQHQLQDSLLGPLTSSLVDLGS
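Homogeneous AlphaScreen proximity assay pairing GST-Six1 with His-tagged Eya2 (added as 5X mix: 250 nM and 500 nM) in 50 mM Tris pH 8.0, 300 mM NaCl, 1 mM TCEP. Glutathione donor and nickel acceptor beads; 1 h, 37 °C, dark.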
PINK1 expr mod: modulators of PINK1 expression. PINK1 immunofluorescence, high-content cytometry, 24 h. Potency, µM (top dose mostly 76.6 µM), inactives show top-dose activation (PINK1 increase), most hits filed as activators. 410,000 compounds, 0.2% hits. AID 624263; active = well fitted activation curve with a large enough effect; inconclusive = small, poorly fitted or top-dose-only effect; inactive = flat fitted curve, though single readings scatter; cell line not stated here;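 note: potency is the fitted concentration of half-maximal effect; % of control where 0% means no effect; nearly all actives have a fitted effect of over 65% in size; a mitochondrial uncoupler was the plate control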
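Cells are seeded, rested 12 hours, then given compound at five concentrations or DMSO for 24 hours. After fixation, blocking and antibody staining, PINK1 amount and mitochondrial localization are scored; CCCP serves as control.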
D2 agonist: agonists of human D2 dopamine receptor (beta-arrestin) | activation, % (test concentration not listed) | P14416 | 360,000 compounds, 0.084% hits | DiscoveRx PathHunter D2 beta-arrestin, luminescence, 90 min; 100% = 57 uM dopamine signal; in the data active = activation above about 40%; inconclusive = about 15% to 40%; inactive = below about 15%; note: compound concentration not given in the record; the text of the record calls up to 30% inactive
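DiscoveRx PathHunter D2 beta-arrestin cells (2,100/well) attached overnight, then compound-stimulated 90 min at 37 C in HBSS/10 mM HEPES/0.1% Tween-20 buffer; beta-galactosidase complementation read by luminescence after 1 h at ambient temperature. Dopamine 57 uM final (EC100) as control.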
TRPML1 inh: blocks the human TRPML1 channel; Q9GZU1; TRPML1-inducible cells, Ca2+ dye fluorescence, FDSS; hits give low values; inhibition of EC80 agonist-evoked calcium signal; activity change, negative = inhibition, % (test concentration not listed); 390,000 compounds, 0.02% hits; AID 624415; in the data active means activity change below about -50%; inconclusive means about -30% to -50%; inactive means above about -30%;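 note: stimulus is agonist 54-4 at its EC80 concentration; % is set by controls: 0 for no effect and ±100 for the full control effect; compound concentration not given in the record; the text of the record puts the active cut at -80%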
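TRPML1-DL cells, Tet-induced overnight (~16 h, 37 °C) at 1,500 cells/well, were loaded with Ca8 no-wash dye plus quencher for 45-90 min at room temperature. Compounds were pinned during FDSS kinetic reading; agonist 54-4 at EC80 (4 uM final) then added.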
TRPML1 agonist: agonists of human TRPML1 channel; AID 624414; activation, % (concentration not given with the values); TRPML1-expressing cells, Ca2+ dye fluorescence, FDSS; host cell line not named in the record; reference of the full effect not given here; 410,000 compounds, 0.12% hits; in the data active = activation above about 50%; inconclusive = about 30% to 50%; inactive = below about 30%; note: 0% is about no effect; the text of the record puts the active cut at 80%
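TRPML1-DL cells, Tet-induced overnight (~16 h, 37 degrees C), loaded 45-90 min at room temperature with Ca8 no-wash calcium dye plus quencher. FDSS fluorescence: 10 s baseline, compound pin-transfer, 110 s agonist read, then EC80 54-4 (4uM final) and 110 s antagonist read.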
An asterisk follows results filed as active; u = inconclusive; x = not tested or not shown; [ ] = remark or other dose.

SMILES	D2 potentiator	Six1-Eya2 inh	PINK1 expr mod	D2 agonist	TRPML1 inh	TRPML1 agonist
COc1ccc(CC(=O)Nc2ccc(S(=O)(=O)Nc3nccc(C)n3)cc2)cc1	1	1	x	0.5	-7	1.0
CC(C)Nc1nc(NCCOc2ccccc2Cl)c2sccc2n1	-14	-2	u	-2.9	x	-1.1
CCN1/C(=C\c2ccc3ccccc3[n+]2CC)Sc2cc(C)ccc21	-8	-1	9.3%	-5.8	u	u
O=c1[nH]nc(-c2ccc(NCCCO)c([N+](=O)[O-])c2)c2ccccc12	-3	-8	-0.5%	-2.3	-7	0.0
O=C(Nc1cccc(-c2nc3cc(Cl)ccc3o2)c1)C1CCCO1 (configuration not stated)	-12	1	-1.0%[38.3 µM]	-0.6	-7	2.3
CCOc1cc(/C=C/c2ccc3cccc([N+](=O)[O-])c3n2)cc(Cl)c1O	-23	u	6.4%	-5.9	57	4.3
Cn1cccc1-c1cc(C(=O)N2CCc3c([nH]c4ccccc34)C2c2ccccn2)[nH]n1 (configuration not stated)	-16	-18	-2.2%	5.6	36	2.6
O=C(c1cc(COc2ccc(-n3cncn3)cc2)on1)N1CCCC1	-4	-5	2.5%	1.1	3	0.5
CCCS(=O)(=O)NC(=O)C1(C)CCN(C(=O)COc2ccccc2)C1 (configuration not stated)	-12	5	-0.3%	-3.4	-10	0.0
S=C(Cc1ccccc1)NCCc1ccccc1	-18	13	1.6%	-3.8	7	0.4
CC(=O)c1cc2c(cc1NC(=O)c1cc3nc(C(C)C)cc(C(F)(F)F)n3n1)OCO2	-2	3	-1.8%	-1.0	13	4.9
Cc1ccc(NC(=O)CCNS(=O)(=O)c2ccc3c(c2)CCN3C(=O)C2CC2)c(Cl)c1	x	x	-2.0%	x	13	0.6
CCOC(=O)c1cc(S(=O)(=O)Nc2ccccc2OCC)[nH]n1	x	x	1.7%	x	-2	-0.4
O=C(c1nc2ncccn2n1)N1CCN(c2ccc(F)cc2)CC1	-11	-2	0.5%	-3.2	7	-1.1
CS(=O)(=O)c1ccccc1C(=O)Nc1ccc(-c2nc3ccccc3[nH]2)cc1	0	u	2.0%	3.6	-10	0.3
CCc1ccc(CNC(=O)CCc2nc(-c3cccs3)no2)cc1	-12	1	0.1%	-5.0	6	1.4
CC1(C(=O)N/N=C/c2c(F)c(F)c(F)c(F)c2F)CC1(Cl)Cl (configuration not stated)	3	-3	-2.8%	0.5	22	2.9
CC(C)n1cnc2cc(NCc3ccco3)ccc21	-3	-5	25%[38.3 µM]	0.9	9	-0.3
CN(C)S(=O)(=O)n1cc(/C=C(\NC(=O)c2ccccc2F)C(=O)NCCCN2CCOCC2)c2ccccc21	-26	2	-0.9%	-0.7	12	0.5
COc1ccc(C2C=C(c3ccc(Cl)cc3)Nc3nc(-c4ccc(Cl)cc4)nn32)cc1 (configuration not stated)	x	x	16µM*	x	12	8.3
CCc1ccc2oc(-c3cccc(N)c3)nc2c1	-26	1	1.1%	-6.1	-14	-0.1
CCC(=O)Nc1ccc(C(=O)N/N=C/c2c(C)[nH]c3ccccc23)cc1	-15	-4	-0.5%	-0.2	-2	1.1
CC(NC(=O)CN(C1CCCCC1)S(C)(=O)=O)c1ccccc1 (configuration not stated)	18	5	-0.9%	-0.5	4	0.1
COc1cccc(CNC(=O)[C@@H]2CCCN2C(=O)[C@H]2CCCCN2C(=O)c2cccs2)c1	x	0	-1.2%	x	x	-0.3
CN1CCN(CCNC(=O)c2ccc3nc(-c4ccc(F)cc4)c(-c4ccc(F)cc4)nc3c2)CC1	-18	-2	-1.2%	1.5	-3	-0.2

A second format for part of the listing above.
CN(C)S(=O)(=O)n1cc(/C=C(\NC(=O)c2ccccc2F)C(=O)NCCCN2CCOCC2)c2ccccc21
  D2 potentiator: -26
  Six1-Eya2 inh: 2
  PINK1 expr mod: -0.9%
  D2 agonist: -0.7
  TRPML1 inh: 12
  TRPML1 agonist: 0.5
COc1ccc(C2C=C(c3ccc(Cl)cc3)Nc3nc(-c4ccc(Cl)cc4)nn32)cc1 (configuration not stated)
  D2 potentiator: x
  Six1-Eya2 inh: x
  PINK1 expr mod: 16µM*
  D2 agonist: x
  TRPML1 inh: 12
  TRPML1 agonist: 8.3
CCc1ccc2oc(-c3cccc(N)c3)nc2c1
  D2 potentiator: -26
  Six1-Eya2 inh: 1
  PINK1 expr mod: 1.1%
  D2 agonist: -6.1
  TRPML1 inh: -14
  TRPML1 agonist: -0.1

The list goes on:
SMILES	D2 potentiator	Six1-Eya2 inh	PINK1 expr mod	D2 agonist	TRPML1 inh	TRPML1 agonist
CC(=O)NCCOC(=O)Nc1ccncc1	-2	3	3.9%[38.3 µM]	-0.3	-1	-0.6
O=C(c1ccccc1CCc1ccccc1)N1CCN(c2ccccn2)CC1	-6	-9	1.3%	-5.5	4	-0.2
Nc1ncnc2c1ncn2[C@@H]1O[C@H](COS(=O)(=O)O)[C@@H](O)[C@H]1O	-2	4	-0.5%	2.0	31	-0.3
CCCn1c(=O)c(C(=O)NC(C)c2ccccc2)c(O)c2ccccc21 (configuration not stated)	-20	3	11%	-0.4	-14	0.4
Cc1cc(Nc2ncc(Cl)cc2Cl)n(-c2ccccc2)n1	-7	4	9.7%	-1.2	-15	0.1
CCc1cc(C(=O)N2CCOCC2)c(NC2=NS(=O)(=O)c3ccccc32)s1	12	1	-1.7%	-2.1	10	-0.2
Cc1cc(C)n2c(SCC(=O)N(CC(C)C)c3c(N)n(CC(C)C)c(=O)[nH]c3=O)nnc2n1	3	4	-1.5%	3.0	-6	0.3
Cc1ncoc1C(=O)N1CCCC(N2CCN(c3cccc(C(F)(F)F)c3)CC2)C1 (configuration not stated)	-23	3	-0.6%	0.9	7	1.1
COc1ccc(N=C2SC(C(N)=O)CC(=O)N2Cc2ccc3c(c2)OCO3)cc1 (configuration not stated)	-4	-9	-0.4%	-1.4	u	0.0
CN(C)C(=O)c1cc([N+](=O)[O-])ccc1O	-6	23	0.4%	-1.3	-5	-0.4
Cc1c(C)c(C)c(S(=O)(=O)NCCC(=O)N2CCN(Cc3ccc(C#N)cc3)CC2)c(C)c1C	4	0	3.0%	7.7	-10	0.2
CNC(=O)c1ccccc1NC(=O)C1CC(=O)N(C(C)C)C1 (configuration not stated)	-5	-12	1.3%	1.5	12	0.9
CCCC(=O)Nc1ccc(C(=O)COC(=O)c2cc(C)oc2C)cc1	3	-2	0.7%	-0.9	-1	1.6
Cc1cc(NC(=O)CSc2c3c(nc4ccccc24)CCC3)no1	-10	3	14%	-3.5	-2	-0.4
CSc1ccc(NC(=O)CC(C)=O)cc1	-12	1	u	-2.1	-1	-0.6
COC(=O)CNC(=O)C1CCN(S(=O)(=O)c2cnc[nH]2)CC1	-11	0	0.7%	-1.6	1	-0.4
O=C(Cn1nc(-c2cccc(Cl)c2)ccc1=O)Nc1cccnc1	-2	-1	u	2.0	10	0.7
CC1(C)OC(=O)C(=NNc2ccccc2C(=O)O)C(=O)O1	-9	-20	0.9%	-4.7	x	x
CN(CC(=O)Nc1ccccc1Cl)C(=O)Cn1cnc2ccccc2c1=O	8	4	-2.5%	-0.7	-11	0.1
COC(=O)NNC(=O)C(c1ccccc1)c1ccccc1	4	3	0.5%	2.1	8	0.7
CCOc1cc(C#N)c(NC(=O)Cn2nnc3ccccc32)cc1OCC	1	5	14%	-3.5	-8	0.6
Cc1c(Cl)cccc1N/C(=N/S(=O)(=O)c1cccs1)c1ccccc1	-11	-2	1.5%	-5.8	-3	0.4
COc1ccc(/C(N)=N/OC(=O)c2ccco2)cc1OC	7	-3	1.8%	10	26	0.5
CCOC(=O)C1=C(COC(=O)Cc2ccc(OC)c(OC)c2)NC(=O)NC1C (configuration not stated)	1	0	1.0%	0.2	-2	-0.6
CCn1cnc2c1c(=O)n(Cc1cccc([N+](=O)[O-])c1)c(=O)n2Cc1ccccc1	9	-4	12%	5.4	-4	-0.2
Going on with the list:
SMILES	D2 potentiator	Six1-Eya2 inh	PINK1 expr mod	D2 agonist	TRPML1 inh	TRPML1 agonist
CCC(CC)C(=O)NCc1nc2cccnc2n1Cc1ccc(F)cc1	x	x	1.2%	x	-3	-0.5
Cc1cc(/C=N/NC(=O)C(O)(c2ccccc2)c2ccccc2)c(C)n1-c1ccccc1	-13	-9	1.4%	-9.1	30	2.2
Cc1cc(C)n(-c2nc3ccccc3nc2Nc2ccc(Cl)c(C(=O)OC(C)C)c2)n1	x	x	0.5%	x	-2	-0.5
O=C(NCCCNC(=O)c1ccco1)c1ccc(F)cc1	0	2	0.3%	2.3	-8	0.3
COc1ccc(CNC(=O)CN(C(=O)CCC(=O)Nc2ccccn2)c2cccc(C)c2C)cc1	-4	-7	-2.0%	-4.7	-10	0.7
Cc1cc(C)n(-c2nnc(C)n2NS(C)(=O)=O)n1	-15	-1	-2.3%	-1.5	4	-0.5
Cc1nn(-c2ccccc2)c(C)c1NC(=O)COc1ccc2ccccc2c1	11	-4	3.3%[38.3 µM]	-1.0	9	5.5
Cc1nn(-c2ccccc2)c2sc(-c3n[nH]c(=S)o3)cc12	-8	u	-0.6%	-1.9	-5	0.9
Cc1ccc(C)c(NC(=O)CN2C(=O)NC(C)(c3ccc4c(c3)OCCO4)C2=O)c1 (configuration not stated)	-1	-2	2.1%	-3.9	0	1.0
CNC(=O)C1(C)Cc2c(-c3ccc4c(c3)OCO4)ccnc2O1 (configuration not stated)	-4	4	-0.3%	8.2	x	-0.7
CCc1nn2c(=O)cc(COC(=O)c3ccccc3NC(=O)COc3ccccc3C)nc2s1	x	x	0.1%	x	-6	1.0
O=C(NNc1nc2cc3c(cc2s1)OCO3)c1ccccc1	-1	-7	-0.7%	4.4	25	-0.7
COc1cc(C(=O)N2CCN(c3cccc(C(F)(F)F)c3)CC2)ccc1OCC(=O)N1CCOCC1	-15	1	0.1%	-1.7	-11	-0.1
Cc1ccc(-c2cc3c(N=O)c4ccccc4c-3n[nH]2)cc1	-4	-2	-0.6%	0.2	1	-0.2
Cc1[nH]n(C(N)=S)c(=O)c1N=Nc1cccc([N+](=O)[O-])c1C	-28	-1	3.3%	-8.6	-11	-1.0
O=C(COc1ccccc1)NCCSCc1ccc(Cl)cc1	-9	15	-1.4%	-1.1	-2	0.0
CCCCn1nnnc1C1(C)CCC(=O)N1CCCN1CCOCC1 (configuration not stated)	x	0	1.4%	x	x	-0.6
CCOC(=O)Cn1c(=O)n(Cc2ccco2)c(=O)c2ccc(C(=O)NC3CCCC3)cc21	-4	1	0.2%	-4.6	-1	1.1
NC(=O)C1CCCN(CC(=O)Nc2ccccc2C(=O)NC2CC2)C1 (configuration not stated)	13	5	0.2%	-2.7	3	1.5
Cc1nc(C(=O)NCC(=O)c2ccccc2)c(C(F)(F)F)o1	-1	2	0.1%	-4.5	-6	0.2
O=C(NCCCN1CCCC1=O)c1sc2ccccc2c1Cl	23	1	-1.0%	-1.3	-3	0.0
O=C(O)c1cccc(CSc2nc(-c3ccc(Cl)cc3)cc(C(F)(F)F)n2)c1	-3	-1	-2.9%[38.3 µM]	-2.1	75	0.8
